Calb FLC = C. albicans growth modulation with fluconazole; growth inhibition, % (no concentration beside the values); 300,000 tested, 0.57% active; C. albicans CaCi-2 (fluconazole-resistant clinical isolate) + fluconazole, Alamar Blue growth, 48 h;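 active = most replicates above 75%; inconclusive = exactly half above 75%; inactive = most below 75%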;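 note: all wells also contain fluconazole at 8 µg/ml as a sub-toxic cotreatment; 0% = median of DMSO wells and 100% = median of geldanamycin control wells; wells of about 8 µL received 7.5 nL stock; the first replicate is given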
LANA-H2A inh = blocks KSHV LANA binding to histone H2A/H2B; inhibition, % (test concentration not listed); Q9QR71; AID 2629; 320,000 tested, 0.6% active; cell-free LANA-H2A/H2B peptide, fluorescence polarization; in the data active = inhibition mostly above about 10%, no sharp cut-off; inactive = mostly below about 6.7%;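 note: stock transfer was 7.5 nL into about 10 µL; 0% = median of vehicle wells and 100% = median of positive control wells; one replicate is shown; the record names a cut of 25% in any replicate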
Target sequence (Q9QR71 whole entry, looked up): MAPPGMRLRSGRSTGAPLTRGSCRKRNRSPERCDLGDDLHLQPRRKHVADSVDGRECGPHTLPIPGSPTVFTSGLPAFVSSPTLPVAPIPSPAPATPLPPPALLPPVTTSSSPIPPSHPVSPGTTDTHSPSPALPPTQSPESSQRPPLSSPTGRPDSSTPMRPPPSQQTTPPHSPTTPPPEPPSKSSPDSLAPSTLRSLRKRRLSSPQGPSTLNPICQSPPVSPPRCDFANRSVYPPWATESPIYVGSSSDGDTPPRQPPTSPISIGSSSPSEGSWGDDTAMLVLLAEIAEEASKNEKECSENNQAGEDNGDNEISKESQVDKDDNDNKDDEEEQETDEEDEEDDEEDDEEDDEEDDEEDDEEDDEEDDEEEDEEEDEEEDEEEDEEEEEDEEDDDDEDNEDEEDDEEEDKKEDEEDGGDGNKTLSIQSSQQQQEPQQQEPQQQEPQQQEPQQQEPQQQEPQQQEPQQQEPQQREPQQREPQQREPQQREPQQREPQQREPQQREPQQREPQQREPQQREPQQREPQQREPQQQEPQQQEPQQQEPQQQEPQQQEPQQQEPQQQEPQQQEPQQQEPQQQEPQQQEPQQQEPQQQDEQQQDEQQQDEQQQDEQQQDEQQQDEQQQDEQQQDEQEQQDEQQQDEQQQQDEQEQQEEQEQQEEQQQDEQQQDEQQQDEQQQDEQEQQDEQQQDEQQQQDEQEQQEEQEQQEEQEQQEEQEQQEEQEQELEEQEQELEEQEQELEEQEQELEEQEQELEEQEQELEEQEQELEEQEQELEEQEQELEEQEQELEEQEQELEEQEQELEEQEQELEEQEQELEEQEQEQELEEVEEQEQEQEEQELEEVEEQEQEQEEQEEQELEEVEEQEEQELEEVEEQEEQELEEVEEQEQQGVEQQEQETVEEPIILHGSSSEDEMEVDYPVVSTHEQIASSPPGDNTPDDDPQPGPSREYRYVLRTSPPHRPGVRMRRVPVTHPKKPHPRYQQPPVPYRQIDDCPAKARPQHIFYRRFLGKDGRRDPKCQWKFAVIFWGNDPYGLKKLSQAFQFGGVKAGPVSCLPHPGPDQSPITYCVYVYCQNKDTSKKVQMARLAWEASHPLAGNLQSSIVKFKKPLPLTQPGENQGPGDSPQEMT
Beta cell apopt = beta cell apoptosis inhibition; AID 435005; INS-1E cytokine-induced death, ATP luminescence, 48 h; percent of positive-control rescue, neutral wells zero; protection from apoptosis, % (test concentration not listed); 300,000 tested, 0.8% active;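 active = all replicates at 75% or more, or half of them and the mean; inconclusive = half reach 75% but not the mean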;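 note: 0% = cytokine-treated negative control wells and 100% = positive control rescue; higher means more ATP so stronger rescue from cytokine killing; wells of about 40 µL received 100 nL stock; the first replicate is given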
RanGTP-Imp inh = disruptors of Ran-importin-beta complex formation – biochemical, FRET, CFP-Ran, YFP-importin-beta, homogeneous, primary screen | 300,000 tested, 1.1% active | inhibition, % (no concentration beside the values) | AID 2216 | cell-free CFP-Ran/YFP-importin-beta FRET ratio;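 active = most replicates above 15%; inconclusive = exactly half above 15%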;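 note: 0% = DMSO wells and 100% = Ran loaded with GDP instead of GTP; wells of about 40 µL received 100 nL stock; the first replicate is given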
Bfl-1 A1 inh = inhibitors of the anti-apoptotic protein A1, read as caspase activation. caspase activation, % (test concentration not listed). 330,000 tested, 0.066% active. MEF A1-2A-BIM cells, Caspase-Glo 3/7 luminescence, 3 h; percent of clofoctol response, vehicle zero;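 active = over half of replicate activation scores above 10%, or exactly half above 10 with the replicate mean above 10; inconclusive = replicate mean below 10 yet half the replicates above 10; inactive = over half of replicates below 10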;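 note: wells of about 30 µL received 50 nL stock; many hits fall short of the cut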
T cruzi inh = blocks replication of Trypanosoma cruzi; T. cruzi beta-gal in NIH3T3, luminescence, 90 h; inhibition, % (concentration not given with the values); 300,000 tested, 1.4% active; AID 1885;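 active = mean inhibition across valid replicates above about 55%, limit read from the data; inconclusive = mean below that limit but half or more replicates reach it; inactive = mean below it, under half of replicates reach it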;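 note: signal also drops with host cell toxicity which is not excluded here; 0% = plate median of DMSO wells and 100% = zero luminescence signal; higher percent means less beta-gal luminescence so fewer parasites; stock transfer was 50 nL into about 50 µL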
B2AR ag = activates human beta-2 adrenergic receptor causing internalization; P07550; Am2.2-beta2AR cells, FAP receptor internalization, flow cytometry; reference of the scale not given here; response, % (concentration not given with the values); 340,000 tested, 0.43% active; AID 504454;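 active = response above a set limit, near 3 SD of response in nonfluorescent compounds, cut at about 42% in these data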;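 note: stock transfer was 100 nL into about 11 µL; a reference agonist was the positive control; negative values mostly stem from fluorescent compounds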
UCH37 inh = blocks the human deubiquitinase UCH37. Q9Y5K5. purified proteasome/UCH37, Ub-AMC cleavage fluorescence. inhibition, % (concentration not given with the values). 330,000 tested, 0.33% active;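 active = mean of two replicates above 20%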;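 note: 0% = compound-free wells with enzyme and 100% = wells lacking proteasome; stock transfer was 100 nL into about 20 µL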
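Material: human UCH37 enzyme supplied as purified proteasome complex. Measure: % inhibition of Ub-AMC cleavage fluorescence. Medium: pH 7.4 Tris-HCl (50 mM) with ovalbumin, ATP-MgCl2, DTT. Times: 30 min preincubation with enzyme, 25 min cleavage at room temperature. Detection: AMC fluorescence intensity at 355/460 nm.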
Starred values were filed as active, the others as inactive; u = inconclusive; x = no result given. Rows are unselected; 4.3% or so of the library scored in one or more.

molecule	Calb FLC	LANA-H2A inh	Beta cell apopt	RanGTP-Imp inh	Bfl-1 A1 inh	T cruzi inh	B2AR ag	UCH37 inh
S=C(Nc1ccc(Cl)c(Cl)c1)N1CCOCC1	2	1.2	-1	3.1	0.3	-17	-3	6.5
COc1ccc(CN2C3CCC2CC(NC(=O)c2cc(OC)c(OC)c(OC)c2)C3)cc1 (stereo not given)	-8	-0.2	-9	1.7	0.2	1	-4	2.1
C=CCNC(=O)N1c2ccccc2Sc2ccccc21	-1	0.2	-1	0.9	0.5	-10	-7	2.8
COC(=O)c1ccc(S(=O)(=O)NCCSc2nnc3c4ccccc4n(C)c3n2)cc1	-10	1.2	x	5.5	0.5	16	1	6.6
COc1ccc(OS(=O)(=O)c2c(C)noc2C)cc1	0	1.6	-4	0.8	0.0	1	10	2.6
COc1ccc(/C=N/N2C(=O)c3ccccc3C2=O)cc1	-7	-8.9	-5	2.1	-0.8	-7	6	x
c1ccc(C(Cc2nc(-c3ccccn3)no2)c2ccccc2)cc1	1	4.6	-2	1.1	0.2	0	2	1.0
COc1cccc(OCc2nnc(SCC(=O)OC3CCCCC3)n2C)c1	-33	0.3	x	11	-0.4	-14	4	-1.4
COc1ccc(CNC(=O)CC23CC4CC(CC(C4)C2)C3)cc1	-6	-17	4	7.5	-0.6	3	-7	-0.3
Cc1ccccc1NC(=O)CSc1nnnn1C	-5	1.3	-5	-17	-0.2	-7	-13	5.6
Cn1c(SCc2cccc(F)c2)nnc1-c1cnccn1	4	-2.2	4	4.1	0.7	-8	-4	3.7
CS(=O)(=O)c1ccc2nnn(OCC(=O)Nc3cccc(C#N)c3)c2c1	36	2.6	-6	-1.3	0.5	8	6	4.1
Cc1ccc(Nc2nnc(SCC(=O)NC(Cc3c[nH]c4ccccc34)C(=O)O)s2)cc1 (stereo not given)	30	-6.7	-4	-1.9	0.5	-5	-1	2.4
CCN1CCN(C(=O)c2c(-c3ccccc3)noc2C)CC1	3	-3.0	4	1.3	0.0	-3	10	-0.5
Cc1cc(NC(=O)COC(=O)c2cc(S(=O)(=O)N(C)C)ccc2Cl)no1	x	-8.4	-7	x	-0.2	x	-4	1.1
O=S(=O)(CC12C3C4C5C1C2C(Br)(C43)C51OCCO1)c1ccccc1 (stereo not given)	1	-4.2	0	0.5	0.7	-1	-3	-1.4
Cn1c(SCC(N)=O)nnc1-c1ccccc1	1	-0.1	-4	3.3	0.0	-6	-9	6.9
Cc1ccc(S(=O)(=O)Nc2cccc(Oc3cnccn3)c2)cc1	11	3.8	-5	-0.6	2.8	1	-4	3.4
Cc1ccc(C)c(S(=O)(=O)Nc2ccccc2C(=O)Nc2cc(C)on2)c1	46	3.1	18	0.4	0.2	-12	16	-230
O=[N+]([O-])c1ccccc1/C=N/NC1=NCCCCC1	-4	-2.4	1	1.3	-0.5	-8	-10	x
COc1ccccc1C(=O)NC(CCSC)C(=O)NNC(=O)C(C)Oc1ccccc1F (stereo not given)	x	x	3	x	0.3	x	-15	2.4
O=C(NCC(c1cccs1)N1CCOCC1)c1ccccc1NS(=O)(=O)c1ccc(Cl)c([N+](=O)[O-])c1 (stereo not given)	8	-17	14	5.5	0.1	11	63*	0.4
Cn1c(C(=O)N2CCN(c3ccc(F)cc3)CC2)cc2ccccc21	10	-4.7	-4	-4.1	1.7	-6	-5	4.0
O=C(/C=C/c1ccccc1)OCC(=O)N1CCCC1	x	-2.7	-1	x	0.1	x	-1	3.7
O=C(O)c1ccc(Cl)c2c1C1C=CCC1C(c1ccccn1)N2 (stereo not given)	2	0.9	x	-2.3	-0.1	-16	x	x
C=C1CC(C(=O)N/N=C/c2ccc(O)cc2)C1	-11	3.5	-4	3.0	-1.4	-7	-4	x
Cc1ccc(Nc2ccc(C(N)=O)cc2[N+](=O)[O-])cc1C	-36	0.6	-23	-5.5	-2.0	-21	2	26*
C=CCC1(CC=C)CCCN1C(=O)CC1C(=O)NCCN1Cc1cccc(OC)c1OC (stereo not given)	-2	-2.8	-2	-5.2	0.2	-1	0	5.2
COC(=O)CC1C(=O)NCCN1C(=O)CSc1nnnn1-c1ccc(OC)cc1 (stereo not given)	-29	-2.7	4	-2.6	-0.2	-6	3	3.5
O=C(Nc1ccc(OC(F)F)c(Cl)c1)C(c1ccccc1)c1ccccc1	-12	-3.3	95*	4.5	0.0	60*	12	-1.0
Cc1ccc(C2=NN(CC(=O)NCCN(C)C)C(=O)CC2)cc1	-1	1.2	0	2.4	0.8	6	-7	4.3
NS(=O)(=O)c1ccc(S(=O)(=O)c2ccccc2)nc1	-4	-0.7	x	4.9	u	x	2	3.6
NS(=O)(=O)c1ccc(N/N=C/c2ccc(C(=O)O)cc2)c([N+](=O)[O-])c1	6	0.1	-1	7.0	-0.8	8	7	x
O=C(NCc1ccncc1)c1cccc(F)c1	-6	-1.9	-5	0.2	1.5	-18	1	4.1
CCCOc1ccc(CC(CC(=O)O)(C(=O)O)C(=O)O)cc1	-2	-3.7	-11	-1.4	0.8	-8	0	3.8
COC(=O)C1=NNC2(c3ccc(C)cc3)C(=O)N(c3ccc(C)cc3)C(=O)C12 (stereo not given)	-28	1.8	-11	3.2	0.7	-4	14	1.9
CCOc1cc(N2CCOCC2)c(OCC)cc1NC(=O)CN1C(=O)NC2(CCCCCCC2)C1=O	15	-3.5	-6	1.3	-0.1	3	-3	2.7
CCOc1cccc(OCCOc2ccc(C(=O)c3ccccc3)cc2)c1	-4	2.2	0	1.6	-0.1	2	-5	5.1
Cc1cc(C)c2cc(C#N)c(SCC(=O)Nc3ccc4c(c3)OCO4)nc2c1	-1	-6.2	6	-0.1	0.4	1	2	-4.4
CC(OC(=O)c1cc(=O)[nH]c2ccccc12)C(=O)NC1CCCCC1C (stereo not given)	19	8.2	-2	u	0.5	-2	-15	-32
Cc1ccc(-c2nc(CSCC(=O)N3CCN(C(=O)c4ccco4)CC3)c(C)o2)cc1	1	2.4	7	-2.1	1.2	2	-14	1.8
Cc1ccc(NC(=O)Cn2cccc2)c(C)c1	-2	1.1	-9	-3.9	0.6	-6	4	2.7
O=C(NCc1cccnc1)C(=O)Nc1nc(-c2ccccc2)cs1	6	0.9	-3	-1.9	-1.4	-5	7	4.0
O=C(Nc1ccc(Br)cc1)c1ccco1	-7	-0.9	3	5.4	0.0	3	5	1.4
C/C(=N\S(=O)(=O)c1ccc(C)cc1)N(C)C	-4	3.4	8	-0.7	0.0	-17	-3	x
COc1ccc(C(=O)N=S2CCN(C(=O)c3ccc(Cl)cc3)CC2)cc1	-24	2.6	4	1.4	0.1	1	-2	5.8
O=P(c1ccccc1)(c1ccccc1)C(O)c1ccc(Br)cc1 (stereo not given)	-9	-4.4	-8	-0.6	-0.5	-15	-2	3.7
Cc1cc(S(=O)(=O)NCc2ccccc2)ccc1OCC(=O)NCc1ccncc1	-11	-8.4	-3	5.2	0.0	7	12	2.8
CC(C)CCN1C(=O)c2ccc(C(=O)Nc3ccccc3C(=O)O)cc2C1=O	32	0.3	1	-8.0	-3.9	-8	11	2.5
CCCC(=O)Nc1ccc(Br)cn1	-4	1.5	-4	-1.2	0.5	5	-5	-1.9
O=C(NC1CCCCC1)C1CC(=O)N(c2ccc(Cl)cc2)C1 (stereo not given)	-2	-1.0	-3	-2.8	-0.7	-9	-4	2.0
CC(C)(C)OC(=O)C[C@@H]1C/C=C\C[C@H](CC(=O)N(CCO)Cc2ccccc2)C(=O)N[C@H](Cc2ccccc2)COC1=O	x	-1.1	-2	x	-0.6	x	13	-1.4
COCCCNC(=O)C1CC(=O)N(c2ccc(C)cc2)C1 (stereo not given)	-3	7.2	0	1.4	1.4	-35	3	3.0
Cc1ccc(-c2cc(C(=O)NCc3cccs3)no2)cc1	-1	2.3	0	3.0	-1.9	-15	2	2.0
Cc1c(C(=O)N2CCCc3ccccc32)oc2ccc(S(=O)(=O)N3CCOCC3)cc12	9	-3.6	3	-0.8	1.1	4	16	-0.2
O=C(COC(=O)CCC(=O)c1ccc(Cl)cc1)NCC1CCCO1 (stereo not given)	-4	-1.0	1	-3.9	-0.2	-9	-2	-1.3
Cc1c(C)n(CCc2c[nH]c3ccccc23)ccc1=O	32	0.1	-9	6.7	-0.1	-1	-2	1.0
CCn1c(C(O)c2ccccc2)nc2ccccc21 (stereo not given)	4	-4.0	-3	3.5	u	-11	-1	2.7
Cc1[nH]c2ccccc2c1N=Nc1c(C)n(C)n(-c2ccccc2)c1=O	-4	2.0	3	-0.6	1.8	-1	-1	12
CC(C)(C)n1nc2c(c1NC(=O)COc1ccc(Cl)cc1)CS(=O)(=O)C2	19	-1.7	-5	-5.7	0.4	-10	-1	-0.4

The list goes on:
molecule	Calb FLC	LANA-H2A inh	Beta cell apopt	RanGTP-Imp inh	Bfl-1 A1 inh	T cruzi inh	B2AR ag	UCH37 inh
CCc1cccc(NS(=O)(=O)c2c(C)n[nH]c2C)c1	11	-5.0	-2	1.1	0.0	11	2	1.2
O=C(O)C1=CCCNC1	x	2.7	1	-4.6	-0.2	-10	-7	5.4
COc1ccccc1C(=O)NNC(=O)c1ccc2ccccc2c1	1	0.8	1	u	0.3	11	-2	0.5
N/C(=N\OC(=O)CC1CCCCC1)c1cccc(Br)c1	x	-6.6	2	x	-1.8	-5	4	3.6
COCC1CCN(Cc2cn[nH]c2-c2cc(OC)c(OC)c(OC)c2)CC1	-12	4.2	x	3.4	-0.7	-9	3	1.2
Cc1cccc(C)c1NC(=O)CNC(=O)c1c(-c2ccccc2)noc1C	x	-2.7	-6	x	0.4	x	7	4.2
